From PubChem
MenB inh: M. tuberculosis MenB inhibitors, primary screen, biochemical, absorbance; 100,000 compounds, 0.43% hits; 1,4-dihydroxy-2-naphthoyl-CoA synthase (Mycobacterium tuberculosis (strain ATCC 25618 / …; MenB enzyme assay, absorbance read-out; some hits fall short of the stated cut; inhibition, %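 (about 12 µg/mL by stock and volumes)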; AID 540299, 2011;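 active means mean of two replicates above 30%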;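 further: 0% = no compound and 100% = wells with inactive enzyme; the first replicate is given; strong numbers were not always called active; inactives centre near -10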
Target sequence (P9WNP5 whole entry, looked up): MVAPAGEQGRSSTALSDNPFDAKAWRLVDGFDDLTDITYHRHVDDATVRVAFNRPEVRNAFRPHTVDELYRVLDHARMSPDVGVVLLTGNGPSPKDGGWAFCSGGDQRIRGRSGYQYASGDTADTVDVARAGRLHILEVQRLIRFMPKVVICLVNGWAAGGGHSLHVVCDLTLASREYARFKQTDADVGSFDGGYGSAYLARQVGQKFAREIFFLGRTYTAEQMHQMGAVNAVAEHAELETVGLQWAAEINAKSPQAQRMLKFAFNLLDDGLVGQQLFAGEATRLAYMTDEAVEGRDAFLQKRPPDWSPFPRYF
Mtb MbtI inh: MbtI salicylate synthase inhibitors, primary screen, biochemical, fluorescence intensity; P9WFX0; purified MbtI enzyme, fluorescence intensity read-out; inhibition, %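 (about 17 µg/mL by stock and volumes)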; 100,000 compounds, 0.89% hits; AID 493033, 2011;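 active means above 50% in both replicates, above 80% if mildly self-fluorescent; inactive means the rest, strongly fluorescent compounds included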;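 further: 0% = mean of negative and 100% = mean of positive controls; one replicate is shown; some compounds called inactive have numbers as strong as hits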
Target sequence (P9WFX0 whole entry, looked up): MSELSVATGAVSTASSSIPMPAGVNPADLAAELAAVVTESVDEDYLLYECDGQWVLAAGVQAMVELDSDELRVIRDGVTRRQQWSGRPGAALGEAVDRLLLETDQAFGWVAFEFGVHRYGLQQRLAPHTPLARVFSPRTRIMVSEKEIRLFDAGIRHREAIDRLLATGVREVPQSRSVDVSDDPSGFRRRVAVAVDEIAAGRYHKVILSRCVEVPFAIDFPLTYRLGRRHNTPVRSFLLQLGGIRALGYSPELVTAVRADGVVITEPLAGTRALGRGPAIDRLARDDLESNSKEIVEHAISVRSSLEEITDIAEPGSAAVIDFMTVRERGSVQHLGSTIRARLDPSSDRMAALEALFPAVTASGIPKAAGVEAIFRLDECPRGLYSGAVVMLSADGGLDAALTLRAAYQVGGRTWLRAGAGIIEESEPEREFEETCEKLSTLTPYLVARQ
PV pol inh: poliovirus RdRp elongation inhibitors, primary screen, biochemical, fluorescence polarization, total intensity; poliovirus polymerase elongation; active compounds read low; % elongation, % (compound at 16.7 µg/mL); 150,000 compounds, 0.66% hits; AID 588519, 2011; in the data active means % elongation below about 90%; further: some results filed as inactive read as strong as hits
PV pol inh intensity: second read-out of PV pol inh, no call of its own (marks repeat the call); % elongation; measured here: total intensity read-out; formula for this scale not given here;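 total fluorescence in place of polarization; lower means less elongation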
The depositor's hits bear a star; / = not tested or not shown; & = joins results of further samples.

Every second line gives: MenB inh	Mtb MbtI inh	PV pol inh	PV pol inh intensity
Cc1cccc(-n2c(O)c(C3=c4ccccc4=NC3=O)sc2=S)c1
→ -17.8	-9.2	100.0	103.0
CCCC1Cc2[nH]c(=O)c(C#N)cc2CO1 (stereo not given)
→ -8.8	116.5	100.0	99.0
Cc1ccnc(NC(c2ccc(Cl)cc2)n2nc(C)cc2C)c1 (stereo not given)
→ 6.1	/	99.0	102.0
Cc1ccc(C(=O)Oc2ccc3oc(=O)sc3c2)cc1
→ -29.0	-4.5	99.0	96.0
CC1=C(C(N)=O)C(c2ccc(C)o2)C(C(N)=O)=C(C)N1
→ -26.5	4.3	103.0	105.0
Cc1cc(C(=O)N/N=C2\C(=O)c3cccc4cccc2c34)c(C)o1
→ -35.1	4.5	102.0	100.0
N=C1SC(c2ccccc2)C(=O)N1c1nccs1 (stereo not given)
→ -60.5	60.7	103.0	103.0
COc1ccc(C(=O)COc2ccc3c(C)c(Cl)c(=O)oc3c2)cc1
→ 4.5	-23.8	101.0	106.0
C=CCn1c(C)cc(C(=O)COC(=O)c2c(C)nn(Cc3ccccc3)c2C)c1C
→ -41.3	-2.5	105.0	95.0
O=C(/C=C/c1cccs1)N1CCN(c2ccccc2)CC1
→ -25.6	-0.4	103.0	104.0
CC(Nc1ncnc2sc3c(c12)CCC3)c1ccc(S(N)(=O)=O)cc1 (stereo not given)
→ -2.2	-0.9	101.0	104.0
N#CC(C(=O)NCc1ccccc1)c1ccccc1 (stereo not given)
→ -10.5	-19.6	99.0	103.0
CC1CN=C(NS(=O)(=O)c2ccccc2)N1 (stereo not given)
→ -6.1	-9.8	104.0	106.0
COC(=O)c1ccc(OCC(=O)c2ccccc2OC)cc1
→ -14.8	3.1	100.0	105.0
COC(=O)c1ccc(N=NN2CCCCC2)cc1
→ 1.3	11.7	102.0	104.0
Cc1cc(C(=O)OCCN2CCN(C3=NS(=O)(=O)c4ccccc43)CC2)c2ccccc2n1
→ 4.9	-7.0	106.0	111.0
Cc1cc2n(n1)CCCN2Cc1ccc(C(=O)N2CCc3ccccc32)cc1
→ -7.7	-3.7	102.0	102.0
CN1C(=O)/C(=C(/C#N)C(=O)NCCc2ccccc2)c2ccccc21
→ 1.6	4.2	99.0	108.0
CCOC(=O)c1c(C)oc2nc(C)nc(NC3CCN(C(=O)OCC)CC3)c12
→ -65.2	-21.1	104.0	100.0
CCOc1ccc(-c2nnc(-c3ccc(Br)cc3)o2)cc1OCC
→ -9.5	-243.4	104.0	102.0
O=C(CSc1nnc(CNc2ccccc2)o1)N1CCc2ccccc21
→ 18.8	5.5	100.0	102.0
O=C(/C=C/c1nc2ccccc2o1)OCc1cccc(Cl)c1
→ -38.3	106.1	103.0	111.0
N#Cc1cc(C(=O)Nc2ccccc2)c(N)[nH]c1=S
→ -18.1	33.1	113.0	117.0
Cc1ccc2c(CSc3nnc(C4CC4)n3C3CC3)cc(=O)oc2c1
→ -8.0	3.6	103.0	107.0
CCOc1ccc(CCNc2ncnc3c2nc2n3CCCCC2)cc1OCC
→ -14.7	-10.7	100.0	102.0
CCOC(=O)C(C)Sc1ncnc2nc[nH]c12 (stereo not given)
→ -13.0	0.4	102.0	107.0
CCC(=O)NC(=S)Nc1ccc2oc(-c3ccccc3Cl)nc2c1
→ -23.0	-14.1	105.0	105.0
CN(c1ccc(Br)cc1)S(=O)(=O)c1ccc2c(c1)CCN2C(=O)CCC(=O)O
→ -23.4	1.8	100.0	105.0
O=C(CSc1nc2ccccc2c(=O)n1Cc1ccccc1)NC1CCS(=O)(=O)C1 (stereo not given)
→ -17.8	-4.9	103.0	113.0
Cc1nc2c(ccc3nc(NC(=O)c4cccc(Oc5ccccc5)c4)sc32)s1
→ -18.5	-4.7	103.0	96.0

Single records, as listed above:
Profile of C=CCn1c(C)cc(C(=O)COC(=O)c2c(C)nn(Cc3ccccc3)c2C)c1C → MenB inh = -41.3; Mtb MbtI inh = -2.5; PV pol inh = 105.0; PV pol inh intensity = 95.0
Profile of CCOC(=O)c1c(C)oc2nc(C)nc(NC3CCN(C(=O)OCC)CC3)c12 → MenB inh = -65.2; Mtb MbtI inh = -21.1; PV pol inh = 104.0; PV pol inh intensity = 100.0
Profile of CCC(=O)NC(=S)Nc1ccc2oc(-c3ccccc3Cl)nc2c1 → MenB inh = -23.0; Mtb MbtI inh = -14.1; PV pol inh = 105.0; PV pol inh intensity = 105.0

The list continues.
Every second line gives: MenB inh	Mtb MbtI inh	PV pol inh	PV pol inh intensity
CCCCC/C=C\C/C=C\C/C=C\C/C=C\CCCC(=O)NCCO
→ -2.7	-18.2	102.0&100.0	103.0&103.0
COc1ccc(NC(=O)CC2(CC(=O)O)CCCC2)cc1
→ -8.7	14.1	101.0	102.0
COc1cc(NS(=O)(=O)c2ccc(N)cc2)ncn1
→ -8.2&7.5	-3.0&-9.6	101.0&100.0	102.0&101.0
Cc1onc(-c2c(Cl)cccc2Cl)c1NC(=O)OCCOc1cc(C(F)(F)F)ccn1
→ -18.4	-13.6	108.0	114.0
CC1CCN(C(=O)CN2C(=O)C(C)(C)Oc3ccc(C(=O)NC(C)C)cc32)CC1
→ -10.9	3.6	101.0	105.0
NC(=O)CSc1nnc(-c2ccc(Cl)cc2Cl)n1C1CCCCC1
→ /	-4.8	103.0	106.0
C=C1C(C(=O)Nc2ccc(F)cc2)C1C(=O)Nc1ccc(F)cc1 (stereo not given)
→ -11.8	2.8	107.0	101.0
O=C1CC(c2ccco2)CC2=C1C(c1ccccc1)n1nc(C(F)(F)F)nc1N2 (stereo not given)
→ -31.4	99.1	102.0	103.0
Cc1ccc(NC(=O)c2cccc(S(C)(=O)=O)c2)cc1
→ -7.5	15.6	101.0	101.0
CCC(C)N=CC1=C(O)CC(C)(C)CC1=O (stereo not given)
→ -16.5	17.0	103.0	100.0
O=c1[nH]c2ccc(Cl)cc2c(-c2ccccc2)c1N1CCN(Cc2ccc3c(c2)OCO3)CC1
→ -23.8	-2.2	100.0	101.0
CCS(=O)(=O)c1nc(S(=O)(=O)c2ccc(Cl)cc2)c(N2CCN(CCO)CC2)s1
→ 11.0	1.2	99.0	102.0
N/C(=N\OCc1noc(-c2ccsc2)n1)c1ccc(C(F)(F)F)cc1
→ -19.8	14.9	104.0	96.0
CSC(=Nc1ccc(Cl)cc1)NC#N
→ 5.4	/	97.0	98.0
COc1ccc(-c2noc(C3CCCN(C(=O)Nc4ccccc4)C3)n2)cc1 (stereo not given)
→ -37.3	-1.9	104.0	106.0
Nc1ccc(N=Nc2ccccc2)c(N)n1
→ 3.1&-3.5	16.0&-10.3	100.0&98.0	99.0&101.0
NC1C2CC3CC(C2)CC1C3 (stereo not given)
→ 0.3	1.9	98.0	100.0
Nc1nonc1C(=O)OCC(=O)c1ccc(Cl)cc1
→ 2.8	1.4	102.0	110.0
C[C@]1(NC(=O)CN2CCCCC2)CCCCC1c1ccc(O)cc1 (stereo not given in full)
→ -14.7	0.4	100.0	101.0
Cc1nc2n(CC(=O)N3CCCCC3)c3ccccc3n2n1
→ /	-8.6	100.0	92.0
CCCn1cc(C(CC(=O)O)C(=O)O)c2ccccc21 (stereo not given)
→ 5.5	-75.5	104.0	98.0
Cc1cccc(NC(=O)Cc2coc3ccc(C)cc23)c1
→ -19.4	-5.0	103.0	108.0
COc1cc(C(=O)Nc2ccc(O)cc2)c2ccccc2n1
→ /	3.4	103.0	98.0
Cc1nn(C(C)(C)C)c2c1C(c1ccccn1)C1=C(CC(C)(C)CC1=O)N2 (stereo not given)
→ /	-24.0	102.0	109.0
CC(/C=C/c1c[nH]c2ccccc12)=C\C(=O)O
→ -20.9	15.4	102.0	104.0
CCC(C)N(C(=O)c1c(F)c(F)c(F)c(F)c1F)C(C)CC (stereo not given)
→ -6.4	-13.0	102.0	103.0
CCN(C(=O)C1CCC(C(=O)N(CC)c2ccccc2)CC1)c1ccccc1 (stereo not given)
→ -10.4	-19.4	99.0	98.0
Cc1ccccc1OCC(=O)Nc1ncccn1
→ -12.5	/	100.0	109.0
O=C(Nc1ccc(-c2cnco2)cc1)c1ccc(F)cc1F
→ -3.0	37.0	98.0	106.0
Cc1cccc(N(C)Cc2cc(=O)n3oc(C)cc3n2)c1
→ 16.3	1.6	99.0	102.0
COc1ccc(C(=O)COC(=O)C23CC4CC(CC(C4)C2)C3)cc1
→ /	-3.8	100.0	97.0
O=C(CCn1c(=O)c2cccn2c2cccnc21)N1CCCCCC1
→ -1.8	-67.0	102.0	102.0
COc1ccc(NC(=O)c2ccn[nH]2)cc1
→ -25.7	-0.5	104.0	105.0
COc1ccc(CN(C(=O)/C=C\C(=O)O)C2CC(=O)N(c3ccccc3)C2=O)cc1 (stereo not given)
→ 13.6	3.2	100.0	101.0
O=C(OC1(C#CCN2CCCCC2)CCCCC1)c1ccccc1
→ -8.7	/	103.0	100.0
Cc1c(C(=S)NC(=O)C2CC2)c(=O)n(-c2ccccc2)n1C
→ -19.0	43.0	48.0	250.0
CN(C)c1ccc(-c2nc3ccc(C(=O)O)cc3s2)cc1
→ -24.4	116.2	100.0	102.0
CCn1c(O)c(C(C)=Nc2ccccc2C(=O)NC2CC2)c(=O)n(CC)c1=S
→ -65.9	12.5	102.0	91.0
Cc1occc1-c1nnc2sc(-c3cccc(F)c3)nn12
→ -72.7	95.2*	103.0	101.0
Cc1nn(CC(=O)N2CCCC2)c(=O)c2cc3ccccc3n12
→ -28.0	43.2	102.0	102.0
Brc1cccc(-c2cn3ccsc3n2)c1
→ 9.5	4.7	100.0	104.0
C=CCOc1ccc(CNn2cn[nH]c2=S)cc1
→ -13.1	55.1	101.0	102.0
CCOc1ccc(-n2c(SCC)nc3c([nH]c4ccccc43)c2=O)cc1
→ -5.1	0.3	102.0	95.0
S=c1[nH]nc(-c2ccncc2)n1-c1ccc2c(c1)OCCO2
→ -13.2	22.9	102.0	102.0
Cc1cc(NC(=O)COCc2cc(-c3ccco3)on2)no1
→ -10.3	2.7	103.0	102.0
Cc1oc(S(=O)(=O)N2CCCC2)cc1C(=O)Nc1ccccc1
→ 4.5	-3.3	104.0	102.0
O=C1NC(=Nc2ccc(F)cc2)S/C1=C/c1ccc(N2CCCCCC2)o1
→ -17.7	42.9	73.0	195.0
CCOC(=O)c1cnc2ccc(OCC)cc2c1NC(C)CC (stereo not given)
→ -20.0	103.3	104.0	104.0
Cc1cc(C)c(N=C(N)NN)cc1C
→ -0.7	-8.3	105.0	106.0
O=C(c1ccccc1)C(C(=O)N1CCCCC1)n1ccccc1=O (stereo not given)
→ -58.2	7.6	103.0	102.0
CCn1c(=O)c2cc(C(=O)N(Cc3ccco3)C3CCCCC3)sc2c2ccccc21
→ -1.2	0.9	103.0	106.0
O=C1CCCN1C(=O)CSc1nc2sc3c(c2c(=O)n1Cc1ccco1)CCCC3
→ -8.5	13.4	107.0	110.0
CC(C)c1ccc2[nH]c(O)c(N=NC(=O)c3nn(C)c(=O)c4ccccc34)c2c1
→ -9.5	104.8	102.0	101.0
CCOC(=O)c1c(-c2ccccc2)n(Cc2ccccc2)c2ccc(O)c(CN(C)C)c12
→ -5.0	3.1	100.0	104.0
Cc1cccc(N=c2scc(-c3cc4ccccc4o3)n2C2CC2)c1
→ -30.9	3.1	99.0	87.0
COc1ccc(C(=O)N2CCn3cccc3C2c2ccccc2)cc1OC (stereo not given)
→ -16.0	-6.3	104.0	103.0
Cn1nccc1NC(=O)c1ccc(Cl)c(Cl)c1
→ -20.3	-0.3	104.0	103.0
c1ccc2c(CNCCc3c[nH]c4ccccc34)cccc2c1
→ 9.1	5.0	103.0	99.0
COc1ccc(NC(=S)N2CCN(Cc3c(C)nn(C)c3C)CC2)cc1OC
→ -7.8	-3.5	102.0	102.0
OC1(C#CC#CC2(O)CCCCC2)CCCCC1
→ 15.8	37.0	100.0	101.0

Following part:
Every second line gives: MenB inh	Mtb MbtI inh	PV pol inh	PV pol inh intensity
Oc1c(C(c2ccccn2)N2CCCCC2)ccc2cccnc12 (stereo not given)
→ /	12.7	103.0	107.0
CCOc1cccc(/C=N/NC(=O)c2ccncc2)c1O
→ -20.7	4.7	101.0	103.0
CCCCN(C(=O)C1CCCO1)c1ccccc1 (stereo not given)
→ 5.1	-7.6	100.0	102.0
CCSCc1nc2ccccn2c1Br
→ /	1.1	98.0	107.0
CCNc1nc(NC(C)C)nc(OCCOC(C)=O)n1
→ -12.8	-20.2	101.0	104.0
CCOC(=O)N1CCC2(CC1)OC(=O)C(C)=C2C(=O)NCCc1ccc(Cl)cc1
→ -2.6	-18.0	101.0	102.0
O=C(OCC(=O)N1CCCC1)c1ccc(O)cc1
→ /	3.2	102.0	105.0
COc1ccc(C)cc1NCc1ccccc1C
→ -1.3	/	107.0	110.0
O=C(NCc1ccc2c(c1)OCO2)c1sc(=S)n2c1[nH]c(=O)c1ccccc12
→ -4.3	13.7	102.0	98.0
COc1ccc(-c2cc(C(F)F)nc(NN)n2)cc1
→ -5.2	18.3	100.0	102.0
Cc1ccc(S(=O)(=O)NC2=NCN(C)CN2)cc1
→ -11.7	-13.7	103.0	102.0
COc1ccc(OC)c(NC(=O)CCNS(=O)(=O)c2ccc3[nH]c(=O)oc3c2)c1
→ -12.4	-7.3	101.0	101.0

The order is random. Share with any hit: about 1.9%.
